High-throughput results from PubChem.
ClpP mod: qHTS Assay for Activators of ClpP. purified B. subtilis ClpP, FRET peptide cleavage, 20 min. hit rate 1.9% among 340,000. ATP-dependent Clp protease proteolytic subunit (Bacillus subtilis (strain 168)), P80244. Potency, µM (top dose mostly 57.5 µM), inactives show at the top dose activity change, negative = active; active = well fitted falling curve with a large enough effect; inconclusive = small, poorly fitted or top-dose-only effect; inactive = no such curve, though single readings can be large or run the other way; further: potency means the concentration at half of the fitted maximal effect; the source files actives as falling curves though it sought activators and does not explain the sign; nearly all actives have a fitted effect of over 65% in size; many hits overshoot -100%
Target sequence (P80244 whole entry, looked up): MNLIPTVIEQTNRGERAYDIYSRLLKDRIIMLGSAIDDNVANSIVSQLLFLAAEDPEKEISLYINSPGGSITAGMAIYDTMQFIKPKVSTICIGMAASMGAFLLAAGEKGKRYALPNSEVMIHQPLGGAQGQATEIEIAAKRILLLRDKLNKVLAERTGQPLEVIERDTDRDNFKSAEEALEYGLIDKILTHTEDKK
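ClpP 10 microg/mL final, pH 8 Tris/KCl buffer with BSA, glycerol, Tween-20; compound pinned in; FRET-FV substrate; RT 20 min; Ex320/Em430; ΔFRET vs ADEP 5.8 microM, DMSO, no enzyme.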
TRPV1 PAM: human TRPV1 potentiation | Q8NER1 | TRPV1-expressing cells, Fluo-8 calcium influx, capsaicin EC20 potentiation; host cell line not named in the record; control for the full effect not named in the record | potentiation, % at 8.33 µM | hit rate 0.02% among 320,000 | AID 540277; active means potentiation above 80%; inconclusive means 30% to 80%; inactive means below 30%; further: 0% is about no effect
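Fluo-8 calcium influx in TRPV1-expressing cells, kinetic read (ex 480/em 520 nm). Compound added and read 3 min for agonist activity, followed by capsaicin at EC20 final and 2 min further read for enhancement.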
gsp agonist: gsp mutant agonism; gsp mutant cells, cAMP HTRF, 30 min; control for the full effect not named in the record; Potency, µM (series often up to 76.9 µM), inactives show at the top dose activation (cAMP increase), actives largely listed as activators; hit rate 0.13% among 340,000; active = well fitted activation curve with a large enough effect; inconclusive = small, poorly fitted or top-dose-only effect, or another doubt; inactive = no such curve, though single readings can be large or run the other way; cell line not stated here;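 further: phosphodiesterase inhibitor Ro 20-1724 added with compounds to block cAMP breakdown; potency means the concentration at half of the fitted maximal effect; nearly all actives have a fitted effect of over 60% in size; about a fifth of the inactives were tested at one dose only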
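Cells stably selected in G418 were plated at 2000/well, grown 16-24 hr, then given compounds in DMSO with the PDE inhibitor […] (300 uM solution added) for 30 min at 37C; cAMP was read by HTRF.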
Menin MLL FP FL: displaces fluorescein MLL peptide from human menin. Fluorescence polarization, fluorescein-MLL peptide displacement from menin. FP activity change, % at 61.4 µM. 290,000 tested, under 10 active. AID 1766; inconclusive = falling polarisation curve, or a change in total fluorescence; inactive = total fluorescence flat and polarisation flat or rising; no compound was filed as active; the % refers to the polarisation; negative = inhibition;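 further: % of control where 0% means no effect; inhibitors lower the polarisation; unlabelled MLL peptide was the positive control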
Sfp PPTase inh: blocks B. subtilis Sfp PPTase activity; Q9F4F7; Potency, µM, for the others: max response, negative = inhibition, actives largely listed as inhibitors; Biochemical Sfp PPTase activity, qHTS; hit rate 3.5% among 310,000; AID 1490; active means well fitted inhibition curve with a large enough effect; inconclusive means small, poorly fitted or top-dose-only effect, or another doubt; inactive means no such curve, though single readings can be large or run the other way;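 further: the enzyme is Sfp with the accession as filed and its product quenches rhodamine fluorescence; potency means the concentration at half of the fitted maximal effect; 0% = enzyme reaction without inhibitor and -100% = no enzyme wells; top concentration of the series not given in the record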
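After 15 min at room temperature with compound, 15 nM Sfp received 5 uM rhodamine-CoA plus 12.5 uM BHQ-2-ybbR (50 mM Hepes pH 7.6, 10 mM MgCl2). Rate came from the fluorescence difference over 30 min, ex 525/em 598 nm.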
gsp antagonist: antagonizes gsp, the McCune-Albright syndrome mutation | gsp-mutant cells, cAMP HTRF, 30 min; control for the full effect not named in the record | Potency, µM (series often up to 76.9 µM), inactives show at the top dose activity change, negative = inhibition, most hits filed as inhibitors | hit rate 0.4% among 340,000 | AID 624288; active = falling curve of any shape with a large fitted effect; inconclusive = falling curve, mostly with a smaller effect; inactive = flat or rising curve; cell line not stated here;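 further: intracellular cAMP measured with PDE inhibitor Ro 20-1724 present during compound exposure; potency means the concentration at half of the fitted maximal effect; on the % scale 0 is the no-effect control and ±100 the full control effect; nearly all actives have a fitted effect of over 65% in size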
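G418-selected cells were plated in DMEM/10% FBS for 16-24 h at 37C, then treated with compounds plus the PDE inhibitor […] (300 uM solution added) for 30 min at 37C. Intracellular cAMP was measured by HTRF after 30 min lysis at room temperature.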
D2 potentiator: positive allosteric modulators of human D2 dopamine receptor. P14416. DiscoveRx D2 beta-arrestin cells, luminescence, 90 min; 100% = 57 uM dopamine signal. potentiation, % (concentration not given with the values). hit rate 0.23% among 360,000. AID 624464; active = potentiation of 50% or more; inconclusive = 30% to 50%; inactive = 30% or less;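 further: compound concentration not given in the record; tested on top of an EC20 dose of dopamine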
Target sequence (P14416 whole entry, looked up): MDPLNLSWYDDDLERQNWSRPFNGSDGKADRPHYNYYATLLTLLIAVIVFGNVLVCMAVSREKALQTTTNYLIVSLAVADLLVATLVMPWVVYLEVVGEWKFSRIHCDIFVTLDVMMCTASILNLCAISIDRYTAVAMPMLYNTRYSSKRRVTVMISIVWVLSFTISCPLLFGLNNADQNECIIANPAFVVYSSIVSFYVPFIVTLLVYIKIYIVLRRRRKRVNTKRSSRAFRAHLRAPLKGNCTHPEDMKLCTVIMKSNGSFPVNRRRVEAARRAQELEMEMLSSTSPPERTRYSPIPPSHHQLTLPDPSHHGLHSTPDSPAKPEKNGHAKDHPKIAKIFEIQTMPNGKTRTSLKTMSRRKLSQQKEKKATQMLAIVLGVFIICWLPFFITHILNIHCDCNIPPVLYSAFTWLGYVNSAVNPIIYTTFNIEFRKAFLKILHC
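PathHunter beta-arrestin assay in DiscoveRx D2 cells. Compounds were added with an EC20 of dopamine (50 nM final) for 90 min at 37 deg C. Luminescence was read 1 h after detection reagent, with 57 uM dopamine as the EC100 control.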
* hit, by the source's call; ? = inconclusive; nt = not tested or not shown; & = joins results of further samples; [ ] = remark or other dose.

SMILES	ClpP mod	TRPV1 PAM	gsp agonist	Menin MLL FP FL	Sfp PPTase inh	gsp antagonist	D2 potentiator
CN(CC(O)COc1ccc(S(=O)(=O)N2CCOCC2)cc1Cl)C1CCCCC1 (stereo not given)	nt	-1	18%[15.4 µM]	-2.2	21%	8%	-7
CC(CCc1ccccc1)NC(=O)C(=O)N1CCOCC1 (stereo not given)	nt	7	-17%[15.4 µM]	-1.7	10%	6%	-8
Cc1cc(N2CCN(C)CC2)nc2ccc(NC(=S)NCCCN3CCc4ccccc4C3)cc12	nt	-4	-7%[15.4 µM]	-1.1	8%	7%	-14
COc1cccc(C(=O)Nc2cc(-c3cn4cccnc4n3)ccc2C)c1	-9.8%	6	-9%[15.4 µM]	-1.0	16%	-11%	2
C=CCNc1nc(N2CCOCC2)nc(N2CCOCC2)n1	0.2%	-2	2%	2.1	24%	1%	1
O=S(=O)(/N=C(/Nc1cccc2ccccc12)c1ccccc1)c1cccs1	-0.6%	-9	4%	3.7	?	-11%	-9
O=C(Cc1ccc(Br)cc1)Nc1ccccc1Cl	-13%	?	-19%	0.2	10%	22%	-18
O=C1C(=O)N(CC(=O)N2CCCC2)c2ccccc21	-7.8%	4	3%[15.4 µM]	0.3	16%	13%	-12
Cc1nc2ccc(NS(=O)(=O)c3ccc(F)c(F)c3)cc2s1	-4.2%	28	12%	nt	nt	-13%	0
Cc1cc(Nc2ccccc2)nc(-c2ccccc2O)n1	-10%	1	-12%	0.1	-6%	-23%	-2
COc1cc(S(=O)(=O)NCCN2CCOCC2)c(OC)cc1Cl	-1.0%	-5	-67%[inhibitor]	-3.7	15%	3%	-9
Cc1ccc(/C=C2\C(=O)ON=C2c2ccccc2)o1	nt	-1	-1%[15.4 µM]	0.1	15%	1%	-7
O=C(Nc1ccc2c(c1)nc1n2CCN(C2CCCCC2)C1)NC1CCCCC1	nt	5	nt	?	-2%	nt	nt
CCOC(=O)N1CCN(C(=O)c2ccc(S(=O)(=O)c3ccc(C)cc3)c(NC(C)=O)c2)CC1	-0.7%	-6	-61%[inhibitor]	1.2	10%	0%	-9
c1ccc(-c2csc3ncnc(N4CCN(Cc5ccc6c(c5)OCO6)CC4)c23)cc1	-3.6%	2	-34%[inhibitor]	1.2	-15%	-4%	-19
CCOC(=O)c1sc2nc(N3CCCC3)c3c(c2c1N)CC(C)(C)OC3	32µM*	nt	6%	1.1	-24%	-4%	7
Cc1ccc(C)c(NC(=O)CN(C)C(=O)c2ccc(COc3ccccc3)cc2)c1	-0.7%	nt	-87%[inhibitor]	nt	nt	nt	-11
Cc1cccc(N=C2CSC(=O)N2)c1	-0.2%	-5	2%[15.4 µM]	-2.1	5%	-14%	-43
COCCN(Cc1cn[nH]c1-c1ccc2cc(OC)ccc2c1)C(C)C	0.9%	2	11%[15.4 µM]	-0.7	9%	2%	-15
O=C(Nc1nc2c(cc3c4c(cccc42)CC3)s1)c1ccccc1Cl	?	4	-9%	11	-1%	-9%	-7
CCOC(=O)C1CCN(C2=C(NS(=O)(=O)c3ccc(Br)cc3)C(=O)c3ccccc3C2=O)CC1	7.7%	8	-10%	0.1	15%	-25%	-16
COc1cc(CCC(=O)O)on1	2.7%	-1	-14%	0.0	18%	0%	1
CC(C)C1C(=O)N(Cc2cn(CCC3OCCCO3)nn2)CCS(=O)(=O)N1Cc1ccc(-c2ccc(F)nc2)cc1 (stereo not given)	0.5%	nt	11%	nt	nt	nt	2
CC1CCCC(NC(=O)CSc2ncccn2)C1C (stereo not given)	-34%	7	8%	nt	nt	8%	-11
CCc1nnc(NC(=O)c2ccc(S(=O)(=O)N3CCN(Cc4ccccc4)CC3)cc2)s1	-2.1%	2	-33%[inhibitor]	2.4	2%	-10%	3
COc1ccc(/C(O)=C2/C(=O)C(=O)N(CC3CCCO3)C2c2cccc(OC)c2)cc1 (stereo not given)	-1.0%	-6	?	5.4	-5%	-4%	10
O=C(Oc1cccc(Nc2ncnc3ccccc23)c1)c1ccccc1Cl	32µM*	9	1%	3.9	9%	?	6
CC(=O)N1CCN(c2ccc(NC(=O)c3ccc(C)cc3)cc2)CC1	1.9%	-19	?	1.5	4%	-8%	5
CN(C)CC1CCCCC1OC(=O)c1ccc(Br)cc1 (stereo not given)	-0.8%	0	29%[15.4 µM]	-3.5	-7%	-7%	-12
Cc1cn([C@H]2C[C@H](O)[C@@H](CNCc3cccc(OC4CCCC4)c3)O2)c(=O)[nH]c1=O	-1.9%	nt	-35%[inhibitor]	nt	nt	nt	-3
Cc1ccc(OCCNC(=O)c2cccc(S(=O)(=O)N3CCN(C)CC3)c2)cc1	-1.1%	-3	-1%	nt	nt	1%	-12
O=C(Cn1ccc2cc(S(=O)(=O)N3CCCC3)ccc21)NCCc1ccccc1	nt	-16	0%	-2.5	6%	-5%	1
CCOC1=C/C(=C/c2c(N)n3oc(C)cc3nc2=O)C=CC1=O	nt	6	nt	?	0%	nt	nt
O=C(c1cc(Cl)nc2ccccc12)N(Cc1nnc(-c2ccc(Cl)cc2)o1)C1CC1	-0.9%	-11	3%	nt	nt	-14%	-10
O=C(COC(=O)c1ccc2c(c1)OCO2)Nc1ncc(Cl)cc1Cl	nt	-2	-3%	4.5	1%	8%	-8
COc1cccc(Nc2nc(N)nc(C(F)(F)F)n2)c1	-4.0%	-3	-54%[inhibitor]	1.0	10%	10%	1
CCc1cc2ccc(C)c(C)c2nc1SCC(=O)NNC(=O)c1ccco1	nt	2	-4%[15.4 µM]	-2.0	7%	-9%	-8
O=[N+]([O-])c1ccc(/C=N\N2CCN(c3ccc(Cl)cc3)CC2)cc1	0.5%	-5	?	-3.5	7%	-15%	4
COc1ccc(-n2nnc3c(SC(C(C)=O)C(=O)N(C)C)ncnc32)cc1 (stereo not given)	0.4%	-11	20%	nt	18µM*	2%	-17
Cc1nn(CCO)c2ncc(C(=O)c3cc(Cl)ccc3O)cc12	nt	19	17%[15.4 µM]	-2.0	13%	-3%	4
O=C(O)Cc1ccc(-c2ccccc2)cc1	1.9%	9	nt	1.0	24%&15%	-26%	4
O=S(=O)(c1ccccc1)N(CC(O)CN1CCOCC1)c1ccccc1 (stereo not given)	nt	9	12%[15.4 µM]	3.5	6%	3%	0
CCS(=O)(=O)N1N=C(c2cccs2)CC1c1cc2cc(C)ccc2nc1Cl (stereo not given)	-9.9%	29	-9%	?	6%	-13%	3
Cc1cc(N2CCOCC2)nc(NCc2ccccc2)n1	-0.7%	-18	-6%	3.3	-25%	-1%	-19
CC(C)(C)c1ccc(C(=O)O)c(C(=O)c2ccc(C(=O)O)cc2)c1	nt	-13	-15%[15.4 µM]	-0.1	-14%	5%	0
CCOC(=O)c1c(NC(=O)Cc2cccs2)sc2c1CCCC2	-18%	1	1%	-1.5	32µM*	-12%	-2
Cc1nc(CNS(=O)(=O)c2cccs2)cs1	-0.5%	-8	?	-1.8	14%	11%	-2
Cc1c(C(c2cccc([N+](=O)[O-])c2O)c2c(C)n(C)n(-c3ccccc3)c2=O)c(=O)n(-c2ccccc2)n1C	0.6%	4	-14%	6.2	15%	-3%	-6
COc1ccc(N(CC(=O)NCc2ccco2)S(C)(=O)=O)cc1	-8.0%	12	-11%	-0.3	9%	4%	-12
CC(C)(C)CN1CCN(Cc2c[nH]c3ccccc23)CC1CCO (stereo not given)	0.3%	6	0%	0.8	13%	-5%	-4
COc1ccc(C(=O)OCC(=O)NC(C)(C)C)cc1[N+](=O)[O-]	2.0%	15	-2%	1.6	10%	-12%	-2
O=C(CNC(=O)c1ccccc1)Nc1ccsc1C(=O)O	nt	8	1%	-0.2	15%	8%	4
O=C(CCC(=O)N(CC(=O)NC1CCCCC1)c1ccc2c(c1)OCO2)Nc1ccccn1	-1.4%	15	24%	2.4	1%	0%[15.4 µM]	-18
COc1cc(CC(=O)Nc2sccc2C(N)=O)cc(OC)c1OC	-9.4%	?	8%	?	?	-2%	-4
COc1ccc(CNC(=O)C2CCCN2S(=O)(=O)c2ccc(F)cc2)cc1 (stereo not given)	nt	0	-8%[15.4 µM]	-3.6	16%	11%	-1
COc1ccc(/C(O)=C2\C(=O)C(=O)N(CCN3CCOCC3)C2c2ccccc2OC)cc1 (stereo not given)	-1.9%	19	-8%	0.6	7%	3%	8
CC(C)C(=O)Nc1cc(C(F)(F)F)ccc1N1CCOCC1	-0.8%	-25	1%	9.8	10%	6%	-18
COC(=O)[C@@H]1C[C@@]2(Br)c3ccccc3N(S(=O)(=O)c3ccccc3)[C@H]2N1C(=O)OC	0.2%	nt	-32%[inhibitor]	nt	nt	0%	2
COc1ccc(-c2nc(C3CCCCC3)no2)cc1OC	-14%	-12	17%	1.3	-5%	-9%	-5
O=C(CCNS(=O)(=O)c1ccccc1C(F)(F)F)NCc1ccc2c(c1)OCO2	0.0%	1	25%	0.3	6%	-7%	1

Continuation:
SMILES	ClpP mod	TRPV1 PAM	gsp agonist	Menin MLL FP FL	Sfp PPTase inh	gsp antagonist	D2 potentiator
CCCCCC(=O)NNC(=O)c1ccc(F)cc1	2.8µM*	1	-21%	3.3	28%	9%	9
Cc1ccccc1NC(=O)C1CCCN1C(=O)NC1CCCCC1 (stereo not given)	-0.9%	2	-32%[inhibitor]	1.9	19%	9%	1
O=[N+]([O-])c1cccc(-c2ccc(/C=N/NC(=S)NCc3ccco3)o2)c1	nt	4	5%[15.4 µM]	-1.7	?	-25%	-9
CCOc1cc(C2/C(=C(/O)c3ccc(S(=O)(=O)N4CCCCC4)cc3)C(=O)C(=O)N2CCOC)ccc1O (stereo not given)	-1.4%	18	-43%[inhibitor]	-6.1	-1%	3%	-8
COC(=O)C1C/C(=N\NS(=O)(=O)c2ccc(C)cc2)c2ccccc2C1 (stereo not given)	-0.2%	2	?	nt	-3%	-10%	-5
CC(=O)c1ccc(N2CCN(C(=O)Cn3c(=S)[nH]c4ncccc4c3=O)CC2)cc1	nt	0	nt	-0.5	18%	nt	nt
Cc1ccc(C)c(OCCn2cc(/C=C(\C#N)C(=O)NCc3cccs3)c3ccccc32)c1	-3.4%	20	0%	0.7	21%	-6%	-15
